# HCMV UL50-53 inh = inhibitors of HCMV UL50-UL53 interaction, biochemical, HTRF. HCMV UL50-UL53 nuclear egress complex (human cytomegalovirus). normalized percent inhibition. inhibition, % (no concentration beside the values). 190,000 compounds, 0.15% hits;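 active = both replicates at 50% or more, plus weaker picks with an unusually low signal ratio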;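 note: stock transfer was 100 nL into about 20 µL; 0% = negative control wells and 100% = wells with untagged competitor protein; inactives centre near -12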
# GIV-Gai inh = inhibitors of GIV peptide binding to Galpha-i3, primary screen, biochemical, fluorescence polarization, FITC-GIV GBA peptide, rat Galphai3. AID 1224905, 2016. 90 min; active compounds read low; scaled: aluminum fluoride 0%, vehicle 100%. percent of control (FP), % (concentration not given with the values). 210,000 compounds, 0.42% hits. Guanine nucleotide-binding protein G(i) subunit alpha-3 (Rattus norvegicus), P08753;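 active = replicate mean at 85% of control or lower, very high polarization wells dropped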;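 note: wells of about 15 µL received 100 nL stock; the first replicate is given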
# Target sequence (P08753 whole entry, looked up): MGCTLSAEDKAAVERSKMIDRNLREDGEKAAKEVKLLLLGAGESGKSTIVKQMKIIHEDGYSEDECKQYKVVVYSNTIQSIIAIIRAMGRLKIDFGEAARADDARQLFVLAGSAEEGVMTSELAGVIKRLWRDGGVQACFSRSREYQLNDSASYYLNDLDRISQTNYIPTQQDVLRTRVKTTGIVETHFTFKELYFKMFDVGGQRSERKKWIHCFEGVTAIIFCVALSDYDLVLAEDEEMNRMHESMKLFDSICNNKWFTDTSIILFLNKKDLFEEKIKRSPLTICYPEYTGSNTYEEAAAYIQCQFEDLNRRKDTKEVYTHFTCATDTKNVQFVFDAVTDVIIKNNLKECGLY
# Sa growth 42C = S. aureus growth inhibition at 42 and 30 °C, primary screen, LtaS inhibitor project, RN4220, two temperatures. OD600, 20 h, 42 °C; active compounds read low. relative growth, % (no concentration beside the values). 170,000 compounds, 0.53% hits. AID 720641, 2013;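 active = growth at 42 °C up to 50% and 20 or more points under that at 30 °C, or under 10% at both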;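 note: 300 nL library stock went into each well; scaled to the means of positive and negative controls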
# Sa growth 42C second temp = further read-out of Sa growth 42C, marked with its call; relative growth, %; measured here: growth at 30 °C;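 optical density after 20 h as mean of two plates; 100% = untreated growth and lower means inhibition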
# * hit, by the source's call; · = no result given; & = joins results of further samples.
SMILES,HCMV UL50-53 inh,GIV-Gai inh,Sa growth 42C,Sa growth 42C second temp
CC1(C)OC(C(N)=O)C(C(N)=O)O1 (stereo not drawn),-3,108,100,90
COc1nc(Nc2ccccc2)nc(NC(C)C)n1,-20,102,113,83
CCOC(=O)c1cccc(NC(=O)c2cc(S(=O)(=O)N3CCCCCC3)cn2C)c1,·,98,110,91
Cc1ccc(S(=O)(=O)Nc2c[nH]c(=O)[nH]c2=O)cc1,-20,·,101,87
Cc1ccc(-c2cc3ncc(C(=O)c4cc(Cl)c(C)cc4O)cn3n2)cc1,0&-9,106&93,94,93
O=[N+]([O-])c1c(Cl)cc(O)c2c1C1C=CCC1C(c1ccccc1)N2 (stereo not drawn),-104,103,·,·
CCn1nc(C(=O)Nc2sccc2C(N)=O)c2ccccc2c1=O,-15,·,105,100
Cc1ccc(-c2nnc3ccccc3c2C(=O)Nc2cccc(C(F)(F)F)c2)cc1,·,110,89,99
O=C(NCCN1CCOCC1)C1CCCN(c2nc3ncccc3n3cccc23)C1 (stereo not drawn),-9,107,·,·
Cc1nc(N2CCCCC2)nc2c1C(=O)CC(C)C2 (stereo not drawn),-28,100,·,·
CC1C(c2ccccc2)=[N+]([O-])C2(CCCC2)N1O (stereo not drawn),-13,·,86,90
CCOC(=O)c1cc(-c2ccccc2)n(CC(=O)N2CCCC2)c1C,-2,106,109,91
CCSc1nnc(-c2ccc(N(CC)CC)cc2)o1,-24,·,69,76
Cc1nn(-c2cc(N3CCCCC3)ncn2)c(C)c1CCC(=O)NC1CCCCC1,-25,98,·,·
COc1cc(OC)cc(C(=O)OCCN2C(=O)c3cccc4c(N5CCOCC5)ccc(c34)C2=O)c1,-16,111,·,·
CCCN(CCC)CCNC(=O)Cn1cnc2sc(C)c(S(=O)(=O)N3CCN(c4ccccc4OC)CC3)c2c1=O,-16,105,92,87
Cc1ccc(/C=C/c2onc(C)c2S(=O)(=O)N2CCC(C(=O)Nc3ccc(Br)c(C)c3)CC2)cc1,·,101,83,99
CCC(C)(C(=O)NC1CCCCC1)N(C(C)=O)c1ccccc1 (stereo not drawn),-8,94,90,91
Cn1c(=O)n(CC(=O)O)c(=O)c2c1nc1n2CCCN1c1ccc(Cl)cc1,15&-19,102&96,104,98
C=CCn1c(C)cc(C(=O)COC(=O)Cc2sc(N)nc2-c2ccc(C)cc2)c1C,-44,·,93,90
CCCn1c(=O)c2sccc2n2c(CCC(=O)NC3CCCCC3)nnc12,-8,103,·,·
NC(=O)c1ccc2[nH]c(CSc3ncn[nH]3)cc(=O)c2c1,0,96,·,·
CNc1ncccc1-c1nc(-c2ccc(C)cc2)no1,11,101,·,·
CC(=O)c1ccc(NC(=O)c2nc3nc(C)cc(C(F)F)n3n2)cc1,-24,98,84,86
NC(=O)CN1C(=O)CC(c2ccccc2)Sc2ccccc21 (stereo not drawn),·,108,101,91
CC(C)[C@H](NS(=O)(=O)c1cccc(C(F)(F)F)c1)C(=O)OCc1nnc(-c2ccccc2)o1,-31,·,100,80
COCCNS(=O)(=O)c1cc(C(=O)N2CCCC2)cs1,-28,107,·,·
Cc1cc(C)n(-c2n[nH]c(=S)c3ccccc23)n1,-20,99,99,83
CCOC(=O)C1CCN(c2cc3c(cc2NC(=O)NC2CCCC2)n(C)c(=O)n3C)CC1,6,105,·,·
O=C1c2[nH]nc(-c3ccccc3O)c2C(c2ccccc2)N1CCc1ccccc1 (stereo not drawn),·,101,112,82
CSC(=NS(=O)(=O)c1ccc(C)cc1)SC,-11,107,107,94
Cc1cccc(CSCc2ccc(C(=O)NC(C)C)o2)c1,3,101,120,77
CCc1noc2ncnc(NCCC3=CCCCC3)c12,3,102,·,·
CCOCCCNC(=O)C(c1ccc(OC)cc1)N(Cc1cccs1)C(=O)CNC(C)=O (stereo not drawn),-2,102,·,·
Cc1cccn2c(=O)c3cc(C(=O)Nc4ccc(Cl)c(Cl)c4)sc3nc12,-39,102,98,94
CC(C(O)c1ccccc1)N(C)C(=O)c1ccccc1 (stereo not drawn),5,·,110,97
FC(F)(F)c1cnc(NN=C2CCSCC2)c(Cl)c1,-42,102,87,63
CN1C(=O)c2ccc(NC(=O)CCCc3nc(-c4ccccc4)no3)cc2C1=O,-28,109,·,·
COc1ccc(-c2nc3c(c(SCC(=O)Nc4cccc(O)c4)n2)Cc2c(CO)cnc(C)c2O3)cc1,·,105,117,80
N=C1C(c2nc3ccccc3s2)=C(O)CN1N1C(=O)c2ccccc2C1=O,-3,·,30,24
CCc1nnc2c3ccccc3nc(Nc3cc(OC)ccc3OC)n12,4,105,·,·
CC(Sc1ccc(S(=O)(=O)N2CCN(C)CC2)cn1)C(=O)NC1(C#N)CCCCC1 (stereo not drawn),13,·,107,97
CC(=O)N1CCN(S(=O)(=O)c2ccc(C)cc2)C1C (stereo not drawn),4,101,93,78
COc1ccc(C2=NN(C(=O)CCCC(=O)O)C(c3ccccc3Cl)C2)cc1OC (stereo not drawn),-10,106,·,·
COC(=O)/C=C1\Nc2ccccc2NC1=O,9,109,91,98
O=C(O)c1cccc(N2CCCC2)c1,-10,97,108,88
CCOc1ccc(CCNC(=O)CCc2c(C)nc3nc[nH]n3c2=O)cc1OCC,-20,100,81,87
O=C(Cc1c(C(=O)O)[nH]c2ccccc12)NCCN1CCN(c2cccc(Cl)c2)CC1,-2,101,98,82
O=C(CC1N=C2c3ccccc3N=C(SCc3cccc(F)c3)N2C1=O)NC1CCCCC1 (stereo not drawn),·,100,101,88
CCOC(=O)c1c(S(=O)(=O)Nc2ccc3c(c2)OCCO3)c(C)n(C)c1C,18,104,98,101
# Next part:
SMILES,HCMV UL50-53 inh,GIV-Gai inh,Sa growth 42C,Sa growth 42C second temp
CSc1ccc(Cl)c(C(=O)OCC(=O)NCC2CCCCC2)c1,-15,·,126,85
CCc1cccc2c1NC(=O)C21OCCO1,·,113,82,80
Cc1ccc2[nH]cc(CCNC(=O)c3ccc(Cl)c(-n4c(C)nc5cccnc54)c3)c2c1,-11,103,·,·
CN1CCC(O)(c2ccccc2)CC1,-10,·,87,89
Cn1cc(NC(=O)NCCSc2c[nH]c3ccccc23)c2ccccc21,-31,109,77,50
COCCN(CCC(=O)N1CCNCC1)C(=O)c1cccc(OC)c1,9,99,·,·
O=C(Nc1nnc(-c2ccc3c(c2)CCCC3)o1)c1ccc(NS(=O)(=O)c2ccc(F)cc2)cc1,-41,102,46,56
CCOc1ccc(NC(=O)c2ccc(F)c(S(=O)(=O)N(CC)Cc3ccccc3)c2)cc1,·,106,113,88
CCOC(=O)CCn1cnc2cc(Br)ccc2c1=O,0,·,87,96
Cc1ccc(-c2nc(S(=O)(=O)c3ccc(C)cc3)c(SCC(=O)Nc3ccc(F)cc3)o2)cc1,-6,107,101,86
COc1ccc(N2CCN(C(=O)c3ccc(NS(=O)(=O)c4ccc(F)c(F)c4)cc3)CC2)cc1,-26,·,95,87
COC(=O)C1=C(C)N=c2s/c(=C/c3ccco3)c(=O)n2C1c1ccc(OC)cc1 (stereo not drawn),-3,115,98,108
Nc1ccc(C(=O)O)c2c(C(=O)O)cccc12,-46,72*,103,68
Cc1nc(SC(C#N)Cc2ccccc2)c2ccccc2n1 (stereo not drawn),-37,·,77,90
CN1C(=O)C(C)(C)c2cc(S(=O)(=O)N(C)CC(=O)N3CCCC3)ccc21,-16,108,·,·
CCOc1ccc(-n2c(=O)c3c4c(sc3n(Cc3cccnc3)c2=O)CCC4)cc1,-4,107,113,87
CCCOc1c(Br)cc(C=C2C(=O)NC(=S)NC2=O)cc1OCC,-16,98,·,·
CCOC(=O)c1c(C)[nH]c(C(=O)N2CCCC(C(=O)NCCN3CCCC3)C2)c1C (stereo not drawn),-7,93,·,·
O=C(NC12CC3CC(CC(C3)C1)C2)N1CC2Cc3cccc(=O)n3C(C2)C1 (stereo not drawn),-4,102,141,99
O=S(=O)(NCc1ccco1)c1ccc(Cl)cc1,-28,101,104,70

# Pulled by structure from above (three):
SMILES,HCMV UL50-53 inh,GIV-Gai inh,Sa growth 42C,Sa growth 42C second temp
CCCOc1c(Br)cc(C=C2C(=O)NC(=S)NC2=O)cc1OCC,-16,98,·,·
CCOc1ccc(-n2c(=O)c3c4c(sc3n(Cc3cccnc3)c2=O)CCC4)cc1,-4,107,113,87
COC(=O)C1=C(C)N=c2s/c(=C/c3ccco3)c(=O)n2C1c1ccc(OC)cc1 (stereo not drawn),-3,115,98,108

# Following part
SMILES,HCMV UL50-53 inh,GIV-Gai inh,Sa growth 42C,Sa growth 42C second temp
COc1ccccc1C(=O)Nc1ccccc1SCc1cc(=O)n2nc(C3CC3)sc2n1,-34,105,102,62
Cc1cc(NCC2CCCO2)n2c(nc3ccccc32)c1C#N (stereo not drawn),-19,123,94,95
CC(=O)Nc1ccc(S(=O)(=O)NCCC(=O)Nc2nc(C)cs2)cc1,-17,·,112,97
Cc1cc2nc(C)n(CCCNC(=O)NC34CC5CC(CC(C5)C3)C4)c2cc1C,·,102,92,83
Cc1noc(C)c1C(=O)N(C)Cc1ccccc1,-11,104,92,94
CC(C)c1ccc2occ(CC(=O)N(Cc3ccc(F)cc3)C3CCS(=O)(=O)C3)c2c1 (stereo not drawn),1,106,93,76
O=C(CSc1nc2ccccc2c(=O)[nH]1)c1ccccc1,8,107,102,106
NC(=O)c1cccn1Cc1ccccc1Cl,-16,95&109,96,85
COCCNC(=O)c1cn(Cc2cccc3ccccc23)nn1,-18,99,108,75
CCC(=O)Nc1nc2ccc(Cl)cc2o1,-19,112,·,·

# Taken from the results shown (two entries):
SMILES,HCMV UL50-53 inh,GIV-Gai inh,Sa growth 42C,Sa growth 42C second temp
CC1(C)OC(C(N)=O)C(C(N)=O)O1 (stereo not drawn),-3,108,100,90
COc1nc(Nc2ccccc2)nc(NC(C)C)n1,-20,102,113,83

# Exported bar-delimited: part of the list above.
canonical_smiles | HCMV UL50-53 inh | GIV-Gai inh | Sa growth 42C | Sa growth 42C second temp
Cc1noc(C)c1C(=O)N(C)Cc1ccccc1 | -11 | 104 | 92 | 94
CC(C)c1ccc2occ(CC(=O)N(Cc3ccc(F)cc3)C3CCS(=O)(=O)C3)c2c1 (stereo not drawn) | 1 | 106 | 93 | 76
O=C(CSc1nc2ccccc2c(=O)[nH]1)c1ccccc1 | 8 | 107 | 102 | 106
NC(=O)c1cccn1Cc1ccccc1Cl | -16 | 95&109 | 96 | 85

# 6 entries out of the list above, arranged by the number in GIV-Gai inh, low to high:
canonical_smiles,GIV-Gai inh,Sa growth 42C second temp
COCCNC(=O)c1cn(Cc2cccc3ccccc23)nn1,99,75
Cc1noc(C)c1C(=O)N(C)Cc1ccccc1,104,94
COc1ccccc1C(=O)Nc1ccccc1SCc1cc(=O)n2nc(C3CC3)sc2n1,105,62
CC(C)c1ccc2occ(CC(=O)N(Cc3ccc(F)cc3)C3CCS(=O)(=O)C3)c2c1 (stereo not drawn),106,76
O=C(CSc1nc2ccccc2c(=O)[nH]1)c1ccccc1,107,106
CCC(=O)Nc1nc2ccc(Cl)cc2o1,112,·

# The list continues.
SMILES,HCMV UL50-53 inh,GIV-Gai inh,Sa growth 42C,Sa growth 42C second temp
O=C(CSc1ccc(F)cc1)Nc1ccc(C2SCCS2)cc1,-14,104,88,81
CCOC(=O)c1c(C)[nH]c(C)c1S(=O)(=O)N1CCCCC1,-38,103,102,81
COc1ccc(-c2nnc(SCC(=O)N(C)Cc3ccccc3)o2)cc1OC,-36,98,94,87
CCC(C)NC(=O)c1cc2c(s1)-c1ccccc1SC2 (stereo not drawn),-19,98,93,86
COC(=O)c1ccc(Cl)cc1NC(=O)N1CCCn2nc(C)cc21,·,104,107,98
COc1ccc(NC(=O)Cn2cnc3nc(N4CCCCC4)sc3c2=O)cc1Cl,-24,100,·,·

# Screening results as filed in PubChem BioAssay.
